Tg IFNy HTS = blocks Toxoplasma gondii growth in the presence of IFN-gamma. Toxoplasma gondii growth in IFN-gamma-treated host cells; hits give low values; reference of the scale not given here. activity change, negative = inhibition, %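 (about 20 µM by stock and volumes)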. actives 3.8% (n = 69,000);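 active = below -70%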;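 also: host cells are HeLa cells infected with Toxoplasma gondii; parasite growth read as luciferase light; one replicate is shown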
* = called active by the depositor; i = inactive; & = joins results of further samples. Not all compounds are listed. The share of hits here may be higher or lower than overall.

SMILES	Tg IFNy HTS
CO[C@H]1CC[C@H]2CCOc3c(C#N)cccc3C(=O)N(C)C[C@H](OC)[C@H](C)C(=O)N(C)C[C@@H]1O2	37.3
Cc1cc(C)n(-c2ccc(OCC(=O)Nc3ccc4c(c3)N(C)CCC4)nn2)n1	15.9
CC(=O)Nc1cccc(NC(=O)CCN2CCCN(C)CC2)c1	-0.5
Cc1ccc(S(=O)(=O)CCC(=O)Nc2ccc3c(c2)N(C)C(=O)CO3)cc1C	6.5
COCC1c2nnn(CC3CC3)c2CCN1C(=O)c1ccncc1 (stereo not drawn)	-10.6
c1cnn(CC2(CNC3CCCNC3)CC2)c1 (stereo not drawn)	-29.1
CCOC(=O)c1c(NC2CCCC2)c2cccc(C)c2[nH]c1=O	-28.0
CCC/C=C/c1cccc(C(=O)NCC)c1	19.2
CNC[C@@H]1Oc2ccc(NS(=O)(=O)c3ccc(OC)cc3)cc2C(=O)N([C@@H](C)CO)C[C@H]1C	-56.3
CCCC#Cc1ccc([C@@H]2[C@@H](CO)N3C(=O)CN(C(=O)Nc4cccc(F)c4)C[C@@H]23)cc1	-3.1
CN1C(=O)C2(CCN(C(=O)NCc3ccco3)CC2)c2ccccc21	-0.5
Cc1ccc(C(=O)N2CCCC(Nc3ccc(F)cc3)C2)c(=O)[nH]1 (stereo not drawn)	6.9
O=C(NC(c1ccccn1)C(F)(F)F)c1cn(-c2ccccc2)nn1 (stereo not drawn)	5.3
O=S(=O)(c1ccccc1)N1CCCC12CCN(Cc1ccc(O)cc1)CC2	-14.5
CCc1cnc(N2CCC3(CC2)OC(C(=O)NCC(C)C)Cn2ccnc23)nc1 (stereo not drawn)	-102.9*
CO[C@@H]1[C@H](O)[C@@H](CO)O[C@H]1n1cnc2c(NC3CCCCC3)ncnc21	6.7
Cc1cc(-n2cnnc2C(O)c2ccccc2)n(C)n1 (stereo not drawn)	5.3
COc1ccc(CCN(C)CCc2ccc(OC)c(OC)c2)cc1OC	4.6&11.0
COc1ccc(C(=O)NCCc2csc(-c3ccc(F)cc3)n2)c(OC)c1	-96.7*
CCc1ccc2occ(CC(=O)NCc3n[nH]c4c3CCC4)c2c1	3.6
Cc1ccc(CSc2n[nH]c(C(F)(F)F)n2)cc1	-44.9
O=C(NC(=O)N1CCOCC1)c1nnc(-c2ccccc2)o1	-19.0
NC(COCc1ccccc1)C(=O)O (stereo not drawn)	15.2
C[C@@H]1NC(=O)NC1=O	30.3
O=C(CSc1ccc(-c2ccc3c(c2)OCCO3)nn1)Nc1nccs1	133.6
Cc1nc(OCC(=O)Nc2ccc(Br)cc2F)c2ccccc2n1	2.7
COC(=O)CC(=O)Cc1ccccc1OC	4.2
O=C(C[C@H]1C=C[C@H](NC(=O)Nc2ccc3c(c2)OCO3)[C@H](CO)O1)NCCCN1CCOCC1	-8.5
COCC(=O)N1[C@H](CO)[C@@H](c2ccccc2)C12CN(Cc1cc(F)ccc1F)C2	-37.1
Nc1nnc(Cc2ccc(Cl)cc2)s1	4.3
Cc1ccc(N2CC3(CCN(C(=O)C4(C#N)CC4)C3)CC2=O)s1 (stereo not drawn)	-9.8
Cc1nc(=O)c2ccccc2n1C1=CCN(Cc2ccccc2)CC1	-19.5
C=CCc1ccccc1OCCN(C)C(=O)C(C)C	7.2
COc1ccc(CCNC(=O)COc2ccc(Cl)cc2Cl)cc1OC	5.2
COCCc1ncc(CN2CCCC2c2cccc(F)c2)cn1 (stereo not drawn)	8.0
COc1ccc(-c2cc(=O)c3c(OC)c(OC)c(OC)c(OC)c3o2)cc1OC	17.1
O=C(Nc1ccc2c3c(cccc13)CC2)c1cccnc1Cl	32.0
CO[C@H]1CC[C@@H]2[C@H]1OCCN2C(=O)C1=CCCCC1	101.8
C[C@@H]1CN([C@@H](C)CO)C(=O)c2cc(NC(=O)C3CCCCC3)ccc2O[C@@H](C)CCCCO[C@H]1CN(C)C(=O)CCC(F)(F)F	158.5
O=C(C[C@@H]1CC[C@@H]2NC[C@H](O)COC[C@H]2O1)NC1Cc2ccccc2C1	19.0
CC(NC(=O)Cc1csc(-c2ccccc2)n1)c1nc2ccccc2n1C(C)C (stereo not drawn)	22.4
COC(=O)c1sccc1S(=O)(=O)N[C@@H]1CC[C@@H](N)C1	-47.3
COc1ccccc1-c1nc(NC(=O)Cc2c(C)noc2C)n[nH]1	-2.2
C[C@@H]1CN([C@@H](C)CO)C(=O)Cc2cc(NC(=O)Cn3cnnn3)ccc2O[C@@H]1CN(C)S(=O)(=O)c1ccc(Cl)cc1	-1.5
COc1ccc(-c2nc(Nc3cc(C)cc(C)c3)c3ccccc3n2)cc1	-35.7
O=C(NCC1CC1)[C@H]1C[C@@H]2CN(S(=O)(=O)c3ccc(F)cc3)C[C@H]1O2	-4.4
COCc1ccc(C(=O)Nc2ccc3nc(C)[nH]c3c2)o1	-55.3
COc1ccc(NC(=O)C2=C(C)C(=O)OC23CCN(C(C)=O)CC3)cc1OC	106.8
O=C(Nc1ccc(CN2CCOCC2)cc1)c1cccnc1	-1.4
Cn1c(=O)n(C)c2cc(Cn3ccnc3-c3ccc(CO)o3)ccc21	11.4

The list goes on.
SMILES	Tg IFNy HTS
Cc1nc(-c2ccc(F)cc2)sc1CCNC(=O)C1CCCC1	107.4
O=C(Nc1cccc(Cl)c1)N1C[C@@H]2[C@H](c3ccccc31)[C@H](CO)N2Cc1cccnc1	-6.1
COc1cccc(-n2c(C)c(C(C)=O)c(C(C)=O)c2C)c1	9.6
Cc1ccccc1NC(=O)N1CCC[C@@]2(C(=O)NCC3CC3)CN(c3ncccn3)C[C@H]2C1	-5.6
O=C(NCCN1CCCCC1)[C@@H]1N[C@@H]2c3ccc(-c4cccnc4)c(=O)n3C[C@@H]2[C@H]1CO	0.8
COc1ccc(NC(=O)c2nnn(Cc3nc(-c4cccc(Cl)c4)oc3C)c2C)cc1	-110.3*
COc1ccc(CCn2c(C)nc(=O)c(-c3ccccc3)c2C)cc1OC	25.0
COc1ccc(-c2nc(C)c(C(C)=O)n2O)cc1OC	10.5&13.2
Cc1cccnc1CC(C)NC(=O)c1cc(Cn2ccc3ccccc32)[nH]n1 (stereo not drawn)	-41.6
COC(F)(F)C(Cl)Cl	-28.4
Cc1ccc(-c2nnc(CSc3n[nH]c(=O)n3-c3ccccc3C(F)(F)F)o2)cc1	12.8
Clc1ccc(-c2cnccn2)cc1Cl	1.0
CS(=O)(=O)N1CCO[C@@H]2[C@H]1CC[C@H]2OCC(=O)N1CCCC1	-40.7
Cc1ccc(F)c(-c2c(-c3ccccc3)ncn2C)c1F	-1.6
CC(C)C(C(=O)N[C@H](C)C(=O)N1CCCC(C(=O)CS(C)(=O)=O)C1)c1ccccc1 (stereo partly drawn)	-31.8
COc1ccc(NC(=O)C2CC(C)=C(C)CC2C(=O)O)c(N2CCOCC2)n1 (stereo not drawn)	22.5
CC1C(=O)N(C)CCN1Cc1ccc(OCC(=O)N2CCCCC2)cc1 (stereo not drawn)	12.3
Cc1cc(-c2cc3c(n(Cc4cccnc4)c2=O)CCN(C(=O)c2n[nH]c4c2CCC4)C3)ccc1F	-23.6
Cc1cccc(CNC(=O)N2CCN3CCN(C)C(=O)C3C2)c1 (stereo not drawn)	2.9
CC(=O)Nc1ccc(NC(=O)c2cncc(NS(=O)(=O)c3ccc(Br)cc3)c2)cc1	39.7
c1ccc(CNc2nc3cccnc3s2)cc1	185.8
CCOc1ccc(C(=O)Nc2ccc3c(c2)OCCO3)cc1OC	185.7
O=C(c1cccc(N2CCNC2=O)c1)N1CC[C@@H](c2ccc(F)cc2)[C@H](O)C1	2.5
O=C(O)C[C@@H]1C=C[C@H](NC(=O)Nc2cc(F)ccc2F)[C@H](CO)O1	-7.3
CCc1ccccc1Nc1ncnc2c1cnn2-c1ccc(OC)cc1	27.2
COc1cccc(S(=O)(=O)N2C[C@H](O)COC[C@@H]3O[C@H](CC(=O)N4CCN(c5ccccc5)CC4)CC[C@H]32)c1	-2.6
Cn1cc(CN(CCO)C(=O)C2CCCN(C3CCCCC3)C2)cn1 (stereo not drawn)	2.7
CN1C(=O)c2cc(NC(=O)c3cnccn3)ccc2OC[C@@H]2O[C@@H](CC(=O)N[C@@H]3CCN(Cc4ccccc4)C3)CC[C@H]21	6.5
CCCCC#Cc1nc(NC)c2ncn([C@@H]3O[C@H](CO)[C@@H](O)[C@H]3O)c2n1	24.0
CCOc1ccc(-c2nc3c(s2)CN(S(=O)(=O)c2cccc(C)c2)CC3)cc1	4.5
COc1cc2c(cc1-c1cncn1Cc1ccccc1CN(C)C)OCCCO2	-2.3
CCc1nc(-c2nccn2Cc2cccc(C(F)(F)F)c2)c(C)[nH]1	0.4
CS(=O)(=O)CCSc1ncccc1C(=O)NCc1cccs1	-41.0
O[C@@H]1CN(c2nccc(C3CCCC3)n2)CC[C@H]1N1CCOCC1	-4.9
O=C(C1CCOCC1)N1CC(=O)N2[C@H](CO)[C@@H](c3ccc(/C=C/c4ccccc4)cc3)[C@@H]2C1	-4.3
Cn1cc(-c2cc3n(n2)CCC(=O)N3CCCC(=O)NCCCN2CCCC2)c2ccccc21	119.0
CN1C(=O)c2cc(NC(=O)c3ccc(C(F)(F)F)cc3)ccc2OC[C@H]2O[C@H](CC(=O)NCc3ccc4c(c3)OCO4)CC[C@H]21	-36.8
CCOCC1COCCC12CCN(C(=O)c1cccnc1OC)CC2 (stereo not drawn)	-66.7
Cc1cccc(CN2CC[C@@H]3[C@H]2CCN3S(=O)(=O)C2CC2)c1	16.7
Cc1cccc(-c2nnc(-c3nc(NC(C)c4ccccc4)c4ccccc4n3)o2)c1 (stereo not drawn)	-93.8*
Nc1cccc(OCCc2ccccc2)c1	i
CC(=O)N1C[C@@H]2N[C@H](C1)C2c1ccc(-c2ccccc2)cc1 (stereo partly drawn)	-12.2
CC1=NOC(C)(C(=O)N2CCc3onc(-c4ccc(F)c(F)c4)c3C2)C1 (stereo not drawn)	1.9
CC1=C(C(=O)NCCN2CCCCC2C)C2(CCCCC2)OC1=O (stereo not drawn)	22.0
OC(Cc1ccccc1)(c1ccccc1)c1ccccc1NC(=S)NC1CC2C=CC1C2 (stereo not drawn)	17.9
CC(C)N1CCCN(c2nc(-c3cccnc3)nc3c2cnn3C)CC1	-18.7
CCn1c(-c2cnn(C)c2C)n[nH]c1=O	-6.1
CC(=O)Nc1ccc(Cl)c(C(=O)NCC2CCCN(C)C2)c1 (stereo not drawn)	-22.6
CC1=Nc2ccccc2N=C(NC(=O)CSc2nnnn2C)C1c1ccccc1 (stereo not drawn)	183.6
CC(=O)N1[C@H](CN(CC(C)C)C(=O)c2ccccn2)[C@H](c2ccccc2)[C@@H]1CO	2.6

The results go on.
SMILES	Tg IFNy HTS
Cc1nn(C)cc1-c1ccnc(NCC2CCN(Cc3ccccc3)C2)n1 (stereo not drawn)	-13.6
CCC(=O)N1Cc2cc(C(=O)NCCOC)nc(-c3cccc(-c4ccc(C#N)cc4)c3)c2[C@H]1CCO	-34.4
CC1(C(=O)O)CCC(C(=O)NC2CCCCCC2)C1(C)C (stereo not drawn)	7.2
CC1(C(=O)NCc2ccc(F)cc2F)CCN(C(=O)COc2ccccc2)CC1	14.8
COc1ccc(CN2C(=O)N(CC(C)C)C3(CCN(Cc4cccc5ncccc45)CC3)C2=O)cc1	8.2
CCN1C(=O)CCCC12CCCN(C(=O)Nc1ccc(C)cc1)C2 (stereo not drawn)	12.3
CCC(C)N(Cc1ccncc1)C(=O)CCSC (stereo not drawn)	-9.8
O=C(NCc1ccccc1-n1cccn1)C1CC2(CCNCC2)CN1 (stereo not drawn)	2.2
CCc1nn(-c2ccccc2)c(NC(=O)c2cccnc2OC)c1C	-3.3
Cc1ncncc1C(=O)NCCc1nc(-c2ccccc2)cs1	12.3
N#CCSC1=Nc2ccccc2C2=NC(CC(=O)NCc3ccc(F)cc3)C(=O)N12 (stereo not drawn)	29.6
O=C(c1ccccc1F)N1C[C@H]2[C@@H](c3ccccc31)[C@@H](CO)N2Cc1ccc2c(c1)OCO2	5.0
Cc1ccc(-n2c(-c3cccc(F)c3)nn(CC(=O)N3CCCC3)c2=O)nc1	-7.0
COc1nc(C)cc(C)c1CNC(=O)CN1CCCN(C)CC1	11.1
Cn1cc(CN(Cc2ccc(-n3ccnc3)cc2)C2CC2)cn1	57.8
CCCn1c2c(c(O)c(C(=O)Nc3ccccc3)c1=O)CCCC2	-1.1
COc1cccc(NC(=O)c2c(O)c3ccccc3n(-c3ccccc3)c2=O)c1	35.4
Cc1cc(C)n2ncc(CN(Cc3noc(C)n3)C(C)C)c2n1	1.1
CCn1cc(C(=O)NCc2ccc(O)c(OC)c2)c(C)n1	-49.3
